# T cruzi repl: blocks replication of Trypanosoma cruzi; T. cruzi beta-gal in NIH3T3, luminescence, 90 h; inhibition, % (no concentration beside the values); 300,000 compounds, 1.4% hits; AID 1885;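 active = mean inhibition across valid replicates above about 55%, limit read from the data; inconclusive = mean below that limit but half or more replicates reach it; inactive = mean below it, under half of replicates reach it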;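 also: signal also drops with host cell toxicity which is not excluded here; 0% = plate median of DMSO wells and 100% = zero luminescence signal; higher percent means less beta-gal luminescence so fewer parasites; stock transfer was 50 nL into about 50 µL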
# B2AR ag: activates human beta-2 adrenergic receptor causing internalization. P07550. Am2.2-beta2AR cells, FAP receptor internalization, flow cytometry; reference of the scale not given here. response, % (test concentration not listed). 340,000 compounds, 0.43% hits. AID 504454;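 active = response above a set limit, near 3 SD of response in nonfluorescent compounds, cut at about 42% in these data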;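 also: stock transfer was 100 nL into about 11 µL; a reference agonist was the positive control; negative values mostly stem from fluorescent compounds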
# Target sequence (P07550 whole entry, looked up): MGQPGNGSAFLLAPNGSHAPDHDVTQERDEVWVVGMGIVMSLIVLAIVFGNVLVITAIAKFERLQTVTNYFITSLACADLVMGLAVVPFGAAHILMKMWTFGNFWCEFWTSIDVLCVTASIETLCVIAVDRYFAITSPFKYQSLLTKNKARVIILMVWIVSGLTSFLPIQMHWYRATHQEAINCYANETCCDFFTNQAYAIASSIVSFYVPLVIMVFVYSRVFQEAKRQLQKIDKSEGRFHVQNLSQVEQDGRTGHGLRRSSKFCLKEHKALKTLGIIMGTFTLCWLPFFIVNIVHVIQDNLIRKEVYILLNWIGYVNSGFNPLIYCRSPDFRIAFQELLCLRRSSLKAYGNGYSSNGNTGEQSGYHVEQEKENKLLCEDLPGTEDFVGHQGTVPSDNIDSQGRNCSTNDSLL
# LANA-H2A inh: blocks KSHV LANA binding to histone H2A/H2B; Q9QR71; cell-free LANA-H2A/H2B peptide, fluorescence polarization; inhibition, % (concentration not given with the values); 320,000 compounds, 0.6% hits; AID 2629; in the data active = inhibition mostly above about 10%, no sharp cut-off; inactive = mostly below about 6.7%;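 also: stock transfer was 7.5 nL into about 10 µL; 0% = median of vehicle wells and 100% = median of positive control wells; one replicate is shown; the record names a cut of 25% in any replicate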
# UCH37 DUB inh: blocks the human deubiquitinase UCH37. 330,000 compounds, 0.33% hits. purified proteasome/UCH37, Ub-AMC cleavage fluorescence. Q9Y5K5. inhibition, % (test concentration not listed);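 active = mean of two replicates above 20%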;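 also: 0% = compound-free wells with enzyme and 100% = wells lacking proteasome; stock transfer was 100 nL into about 20 µL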
# Target sequence (Q9Y5K5 whole entry, looked up): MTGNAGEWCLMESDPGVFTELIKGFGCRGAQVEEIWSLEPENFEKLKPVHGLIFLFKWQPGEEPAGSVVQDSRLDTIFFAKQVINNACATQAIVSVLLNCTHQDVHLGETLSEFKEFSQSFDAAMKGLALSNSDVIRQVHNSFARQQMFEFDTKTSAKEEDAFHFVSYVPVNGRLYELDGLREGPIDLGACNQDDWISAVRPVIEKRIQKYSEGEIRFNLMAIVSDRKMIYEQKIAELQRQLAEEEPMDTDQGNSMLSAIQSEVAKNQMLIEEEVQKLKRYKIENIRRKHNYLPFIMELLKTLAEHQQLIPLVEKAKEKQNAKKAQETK
#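 Test system – human UCH37 enzyme supplied as purified proteasome complex · Incubation – 30 min preincubation with enzyme, 25 min cleavage at room temperature · Detection – AMC fluorescence from Ub-AMC cleavage, excitation 355 nm, emission 460 nm · Benchmarks – no-proteasome wells (full inhibition) and compound-free wells (no inhibition)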
# Beta cell apopt: beta cell apoptosis inhibition. INS-1E cytokine-induced death, ATP luminescence, 48 h; percent of positive-control rescue, neutral wells zero. protection from apoptosis, % (no concentration beside the values). 300,000 compounds, 0.8% hits;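 active = all replicates at 75% or more, or half of them and the mean; inconclusive = half reach 75% but not the mean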;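 also: 0% = cytokine-treated negative control wells and 100% = positive control rescue; higher means more ATP so stronger rescue from cytokine killing; wells of about 40 µL received 100 nL stock; the first replicate is given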
# RanGTP-Imp inh: inhibitors of RanGTP-importin-beta interaction, primary screen, biochemical, FRET, CFP-Ran, YFP-importin-beta, homogeneous. cell-free CFP-Ran/YFP-importin-beta FRET ratio. inhibition, % (no concentration beside the values). 300,000 compounds, 1.1% hits;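 active = most replicates above 15%; inconclusive = exactly half above 15%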;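 also: 0% = DMSO wells and 100% = Ran loaded with GDP instead of GTP; wells of about 40 µL received 100 nL stock; the first replicate is given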
# Calb FLC: affects C. albicans growth with fluconazole; AID 1979; growth inhibition, % (no concentration beside the values); 300,000 compounds, 0.57% hits; C. albicans CaCi-2 (fluconazole-resistant clinical isolate) + fluconazole, Alamar Blue growth, 48 h;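 active = most replicates above 75%; inconclusive = exactly half above 75%; inactive = most below 75%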;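 also: all wells also contain fluconazole at 8 µg/ml as a sub-toxic cotreatment; 0% = median of DMSO wells and 100% = median of geldanamycin control wells; wells of about 8 µL received 7.5 nL stock; the first replicate is given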
# A1 inh: inhibitors of the anti-apoptotic protein A1, read as caspase activation | 330,000 compounds, 0.066% hits | caspase activation, % (concentration not given with the values) | MEF A1-2A-BIM cells, Caspase-Glo 3/7 luminescence, 3 h; percent of clofoctol response, vehicle zero | AID 2462;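 active = over half of replicate activation scores above 10%, or exactly half above 10 with the replicate mean above 10; inconclusive = replicate mean below 10 yet half the replicates above 10; inactive = over half of replicates below 10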;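 also: wells of about 30 µL received 50 nL stock; many hits fall short of the cut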
# Numbers without * were called inactive; ? = inconclusive; . = no result given.
SMILES,T cruzi repl,B2AR ag,LANA-H2A inh,UCH37 DUB inh,Beta cell apopt,RanGTP-Imp inh,Calb FLC,A1 inh
COc1ccc(NC(=O)CN(C)S(=O)(=O)c2ccccc2)c([N+](=O)[O-])c1,-13,11,-5.3,-0.3,-1,0.5,0,0.5
COc1ccc(C(=O)NC2CCN(S(=O)(=O)c3ccc(F)cc3)CC2)cc1,9,-1,11,0.6,-3,1.5,-1,1.3
Cc1ccc(-c2nnn(CC(=O)N(CC3CCCO3)C(C(=O)NC3CCCC3)c3ccc(O)cc3)n2)o1 (configuration not stated),-4,0,2.4,3.6,-1,6.9,12,0.2
O=C(c1ccc2c(=O)n3c(nc2c1)CCCCC3)N1CCCCC1,-2,-2,5.6,-1.0,0,0.1,-7,-0.5
Cc1ccccc1OCCn1c(CCNC(=O)C(C)C)nc2ccccc21,-9,-22,-3.0,-2.2,0,0.9,4,0.8
COC(=O)C(C)Sc1nc(NCc2ccccc2)nc(N(C)C)n1 (configuration not stated),-1,16,.,5.6,4,-2.0,15,-0.9
O=C(NNC(=S)Nc1ccccc1)c1cccc(Br)c1,-15,-10,8.8,3.5,10,-3.6,19,-0.7
Cc1cc(C)cc(NC(=S)NC2CC3CCC(C2)N3Cc2ccco2)c1 (configuration not stated),-23,8,-4.4,6.9,-9,1.9,-29,-0.4
Cc1ccc(C2=Nc3ccccc3NC(C)(c3ccc(C)o3)C2)o1 (configuration not stated),10,-1,0.5,-4.4,-10,?,-2,-0.2
CC(CC(=O)Nc1nccs1)c1ccccc1 (configuration not stated),-3,-5,0.8,2.1,5,0.5,-2,0.7
COC(=O)c1c(NC(=O)COC(=O)CNC(=O)C2CCCCC2)sc(C)c1C,-12,9,0.0,-31,-4,0.6,0,-0.4
Cc1ccc(N2CC(=O)N(NC(=O)c3sc4nc(C)cc(C)c4c3N)CC2=O)cc1,-4,-8,0.4,-285,7,20*,-2,-0.3
C(=C\c1ccccc1)/C=N/Nc1nc(N2CCOCC2)nc(N2CCOCC2)n1,12,5,-0.2,.,-8,3.7,9,-0.1
Cn1c(N/N=C\c2cccc(O)c2)cc(=O)n(C)c1=O,-13,3,-3.7,.,-3,5.8,7,-0.2
Cc1ccc2nc(N(CCCN(C)C)C(=O)c3ccc(S(=O)(=O)N4CCCCCC4)cc3)sc2c1,60*,28,1.5,4.6,13,-0.8,-8,2.3
CC1=CC(C)(C)NC(=S)N1C(C)c1ccccc1 (configuration not stated),-33,3,-2.5,4.3,-1,0.7,-2,-0.7
O=C(Nc1nnc(CCS(=O)(=O)c2ccc3ccccc3c2)s1)c1cccs1,15,-1,.,1.2,0,-1.1,-8,0.1
O=C(Nc1ccc(C(=O)O)cc1)Nc1ccc([N+](=O)[O-])cc1,6,4,-3.2,14,.,-2.2,5,-1.1
CS(=O)(=O)N(CC(=O)Nc1ccc(F)cc1F)c1cccc([N+](=O)[O-])c1,-27,-2,-1.8,0.4,-8,?,-14,0.2
O=C1C=C(N2CCCCCC2)C2(CCCCC2)O1,-11,-1,-4.8,3.0,-5,-1.8,-6,0.2

# As a short view, some entries already given:
SMILES,T cruzi repl,B2AR ag,LANA-H2A inh,UCH37 DUB inh,Beta cell apopt,RanGTP-Imp inh,Calb FLC,A1 inh
O=C(NNC(=S)Nc1ccccc1)c1cccc(Br)c1,-15,-10,8.8,3.5,10,-3.6,19,-0.7
Cc1cc(C)cc(NC(=S)NC2CC3CCC(C2)N3Cc2ccco2)c1 (configuration not stated),-23,8,-4.4,6.9,-9,1.9,-29,-0.4
Cc1ccc(C2=Nc3ccccc3NC(C)(c3ccc(C)o3)C2)o1 (configuration not stated),10,-1,0.5,-4.4,-10,?,-2,-0.2
CC(CC(=O)Nc1nccs1)c1ccccc1 (configuration not stated),-3,-5,0.8,2.1,5,0.5,-2,0.7
COC(=O)c1c(NC(=O)COC(=O)CNC(=O)C2CCCCC2)sc(C)c1C,-12,9,0.0,-31,-4,0.6,0,-0.4
Cc1ccc(N2CC(=O)N(NC(=O)c3sc4nc(C)cc(C)c4c3N)CC2=O)cc1,-4,-8,0.4,-285,7,20*,-2,-0.3
C(=C\c1ccccc1)/C=N/Nc1nc(N2CCOCC2)nc(N2CCOCC2)n1,12,5,-0.2,.,-8,3.7,9,-0.1
Cn1c(N/N=C\c2cccc(O)c2)cc(=O)n(C)c1=O,-13,3,-3.7,.,-3,5.8,7,-0.2
Cc1ccc2nc(N(CCCN(C)C)C(=O)c3ccc(S(=O)(=O)N4CCCCCC4)cc3)sc2c1,60*,28,1.5,4.6,13,-0.8,-8,2.3
CC1=CC(C)(C)NC(=S)N1C(C)c1ccccc1 (configuration not stated),-33,3,-2.5,4.3,-1,0.7,-2,-0.7
O=C(Nc1nnc(CCS(=O)(=O)c2ccc3ccccc3c2)s1)c1cccs1,15,-1,.,1.2,0,-1.1,-8,0.1
O=C(Nc1ccc(C(=O)O)cc1)Nc1ccc([N+](=O)[O-])cc1,6,4,-3.2,14,.,-2.2,5,-1.1
CS(=O)(=O)N(CC(=O)Nc1ccc(F)cc1F)c1cccc([N+](=O)[O-])c1,-27,-2,-1.8,0.4,-8,?,-14,0.2
O=C1C=C(N2CCCCCC2)C2(CCCCC2)O1,-11,-1,-4.8,3.0,-5,-1.8,-6,0.2

# The list goes on.
SMILES,T cruzi repl,B2AR ag,LANA-H2A inh,UCH37 DUB inh,Beta cell apopt,RanGTP-Imp inh,Calb FLC,A1 inh
Cc1ccc(S(=O)(=O)NCC2CCC(C(=O)N3CCN(C)CC3)CC2)cc1 (configuration not stated),-10,8,3.7,1.7,-3,2.9,13,0.2
CC(C)N(Cc1nc(-c2ccccc2)no1)C(=O)c1ccc2c(c1)OCO2,4,0,-0.2,2.6,-12,-3.4,?,0.0
Cc1n[nH]c(=S)n1/N=C/c1ccccc1OCc1ccc(Cl)cc1,-10,-2,-4.0,.,-20,0.3,30,0.8
Cc1cccc(NC(=O)c2onc3c2CCCC3)c1C,8,3,7.3,-2.7,2,1.6,-3,0.8
CCCCc1cc(=O)oc2c(C)c(OCC(=O)N3CCC(C(N)=O)CC3)ccc12,8,-10,-2.4,-34,.,12,4,-0.3
CC(C)N1C(=O)N(c2ccccc2)C(C)(O)CC1(C)C (configuration not stated),-7,15,-0.7,5.0,-6,?,8,0.3
O=C(c1coc(=O)c(Br)c1)N1CCCc2ccccc21,0,-8,-0.6,-25,-1,1.9,3,0.1
CC1(C(=O)O)CCC(C(=O)N2CCOCC2)C1(C)C (configuration not stated),-6,6,1.6,3.7,-5,2.2,0,1.7
Cc1nc(NC(=O)CSc2nnc(N)s2)c(Cl)cc1Cl,-8,-3,.,-0.8,1,-2.1,32,0.3
COC(=O)c1ccc(OCC(=O)N2CCCc3ccccc32)cc1,17,-5,1.1,-0.7,1,-2.6,4,0.6
Cc1cc(C)n2nc(C(=O)OCC(=O)N(C)C3CCCCC3)nc2n1,-15,-1,4.0,0.1,-1,?,2,2.6
O=C1Cc2cc(S(=O)(=O)NCc3ccccc3Cl)cc3c2N1CCC3,-19,0,4.5,0.8,1,-1.5,-12,0.3
Cc1ccc(C)c2c1cc(C)c1nnc(SCC(=O)Nc3nc4c(s3)CCCC4)n12,11,-9,-1.1,-0.4,-2,2.4,-7,0.4
CNC(=O)CN(c1ccc(F)cc1)S(=O)(=O)c1cc(C)ccc1OC,-7,9,16,1.5,-5,-4.4,-3,0.3
COc1cc(/C=C2\C(=N)N3N=C(S(C)(=O)=O)SC3=NC2=O)cc(OC)c1OCCOc1ccccc1C,-10,3,-0.3,-0.9,-6,2.5,6,0.4
CCN(CC(=O)Nc1cccc(OC)c1)c1ncnc2sc(C)c(C)c12,5,-2,-1.2,3.4,21,-2.0,-24,0.1
Cc1cc(NC(=O)c2cccc(S(=O)(=O)N3CCOCC3)c2)no1,1,1,-1.9,4.2,4,0.2,7,0.7
CCN(c1ccccc1)S(=O)(=O)c1cnc[nH]1,-2,13,4.1,0.0,-8,1.5,7,-0.8
Cn1c(N)c(C(=O)COC(=O)/C=C/c2ccc(Cl)c(Cl)c2)c(=O)n(C)c1=O,.,-2,-2.4,1.3,5,.,.,-0.5
NS(=O)(=O)c1ccc(NC(=O)COC(=O)c2cc([N+](=O)[O-])ccc2Cl)cc1,9,20,-4.3,-0.8,0,4.1,-3,0.7
COc1cccc(N2CC(C(=O)N3CCC4(CC3)CC(=O)c3ccccc3O4)CC2=O)c1 (configuration not stated),4,-1,-6.1,-43,2,3.3,24,0.4
CCSc1oc(-c2ccco2)nc1S(=O)(=O)c1ccc(F)cc1,3,-5,5.8,1.3,-9,0.9,2,-0.1
CCOc1ncccc1C(=O)N1CCN(S(=O)(=O)c2ccc(Br)cc2Cl)CC1,25,-29,-1.7,0.4,7,6.5,8,0.4
CN(CCC#N)C(=O)COC(=O)c1ccc2c(=O)n3c(nc2c1)CCC3,-4,-15,-1.7,-11,-3,3.1,11,0.9
C#Cc1ccc([C@H]2C=C(C(=O)OCC=C)O[C@@H](OCc3ccc(CO)cc3)C2)cc1,-7,0,-4.3,6.0,-3,1.5,-1,-0.2
Nc1n[nH]c2ccccc12,15,3,2.5,-0.5,5,2.9,3,-1.2
CC(C)C[C@H](NC(=O)c1[nH]cnc1C(=O)N[C@H](C)c1ccccc1)C(=O)OC(C)(C)C,10,9,4.8,-0.3,27,6.3,14,-0.1
COc1cc(C(CCN2CCN(c3ccccc3)CC2)c2c(OC)cc(OC)c3ccc(=O)oc23)cc(OC)c1OC (configuration not stated),6,-15,-1.4,0.6,5,-2.0,-12,-0.8
Cc1ccc(N(CCC#N)C(=O)CSc2ccc3c(c2)OCCO3)cc1,-3,12,0.0,-2.8,-7,2.1,-12,1.4
CCCC(=O)c1ccc(-c2ccccc2)cc1,9,11,-1.5,5.8,5,-2.0,-8,-0.4
CN1CCN(NC(=O)c2cc(-c3cccc(Cl)c3)nc3ccccc23)CC1,24,-2,-2.8,1.9,2,1.1,-1,0.2
O=C(CN1C(=O)NC2(CCCC2)C1=O)c1ccc(Cl)s1,0,-5,-0.1,5.1,0,2.2,-4,0.4
COc1cc(OC)cc(C(=O)Nc2cc(C)on2)c1,-2,-5,-2.9,0.2,-9,-2.9,-2,-0.9

# Screening data: PubChem BioAssay, several laboratories
